Vaccinia Venus: qHTS for Stage-Specific Inhibitors of Vaccinia Orthopoxvirus: Venus Reporter Primary qHTS; 330,000 tested, 0.46% active; Vaccinia virus Venus reporter expression, fluorescence; Potency, µM (highest dose often 36.5 µM), without a hit: top-dose activity change, negative = inhibition, hits mostly inhibitors; active means well fitted inhibition curve with a large enough effect; inconclusive means small, poorly fitted or top-dose-only effect; inactive means no such curve, though single readings can be large or run the other way; tested in A549 cells; note: nearly all actives have a fitted effect of over 30% in size; inactives centre near -10
Vaccinia mCherry: qHTS for Stage-Specific Inhibitors of Vaccinia Orthopoxvirus: mCherry Reporter Primary qHTS. Vaccinia virus mCherry reporter infection, fluorescence; about a quarter of the inactives have no number. Potency, µM (top dose mostly 36.5 µM), for inactives: at the top dose activity change, negative = inhibition, usual class: inhibitors. 310,000 tested, 0.63% active. AID 720579, 2013; active = well fitted inhibition curve with a large enough effect; inconclusive = small, poorly fitted or top-dose-only effect; inactive = no such curve, though single readings can be large or run the other way; tested in A549 cells; note: nearly all actives have a fitted effect of over 35% in size; inactives centre near -10
* = called active by the depositor; i = inactive; u = inconclusive; x = no result given. % is set by controls: 0 for no effect and ±100 for the full control effect; potency is the fitted concentration of half-maximal effect.

SMILES	Vaccinia Venus	Vaccinia mCherry
CCCCN(C(C)=O)c1c(CC)nc2ccc(C(=O)NCc3cccs3)cn12	-2%	7%
N#Cc1ccccc1NC(=O)CSC1=Nc2ccccc2C2CC=NN12 (configuration not stated)	4%	0%
Cc1ccc2c(=O)c(C(=O)c3ccc(F)cc3)cn(CC(=O)NCc3ccco3)c2n1	-4%	-12%
CCN(CC)C(=O)Cn1cc(SCC(=O)Nc2cccc(C)c2)c2ccccc21	-5%	2%
CCN(CC)c1ccc(N=Cc2c(O)n(-c3cc(OC)ccc3OC)c(=O)[nH]c2=O)cc1	-12%	x
CC(=O)Nc1ccc(OCC(=O)c2cc(C)ccc2C)cc1	-13%	i
Cc1ccc(C(=O)CNc2ccccc2)cc1	5%	u
COc1ccc(CNC(=O)C(C)OC(=O)C23CC4CC(CC(O)(C4)C2)C3)cc1 (configuration not stated)	-17%	-19%
Cc1ccc2c(c1)c(=O)c1c3n2CCN(CC2CO2)C3CC1 (configuration not stated)	-5%	10%
Cc1cccc2c1-c1sc(C(=O)NCCCN3CCN(c4cccc(Cl)c4)CC3)cc1CO2	-16%	-11%
Cc1cc(OCC(=O)N(Cc2ccco2)C2CCS(=O)(=O)C2)ccc1Cl (configuration not stated)	-11%	0%
COc1ccc(N2CC(NC(=O)COc3ccc(F)cc3)CC2=O)cc1OC (configuration not stated)	-5%	-7%
Cc1ccc(-c2cc(NC(=O)c3ccccc3)on2)cc1	-15%	i
Cc1nn(C)cc1NC(=O)c1cc2nc(-c3ccco3)cc(C(F)(F)F)n2n1	-8%	-8%
CCCNC(=S)Nc1ccc(Cl)cc1Cl	-4%	i
COc1cc(SC)ccc1C(=O)Nc1c(C)cccc1C	-13%	-4%
CCOC(=O)Cc1csc(NS(=O)(=O)c2ccc(Br)cc2)n1	-10%	i
CCCOc1ccc(-c2nonc2NC(=O)c2cc(OC)c(OC)c(OC)c2)cc1OCCC	-19%	-4%
CC(=O)N1CCc2cc(CNC(=O)Nc3ccccc3C(F)(F)F)ccc21	-1%	i
O=C(c1ccc(Cl)c(S(=O)(=O)N2CCc3ccccc3C2)c1)N1CCN(c2ccccc2)CC1	-10%	-8%

Of the compounds above, these contain fluorine:
SMILES	Vaccinia Venus	Vaccinia mCherry
Cc1ccc2c(=O)c(C(=O)c3ccc(F)cc3)cn(CC(=O)NCc3ccco3)c2n1	-4%	-12%
COc1ccc(N2CC(NC(=O)COc3ccc(F)cc3)CC2=O)cc1OC (configuration not stated)	-5%	-7%
Cc1nn(C)cc1NC(=O)c1cc2nc(-c3ccco3)cc(C(F)(F)F)n2n1	-8%	-8%
CC(=O)N1CCc2cc(CNC(=O)Nc3ccccc3C(F)(F)F)ccc21	-1%	i

(listing goes on)
SMILES	Vaccinia Venus	Vaccinia mCherry
Cc1ccc(Cc2nnc(SCC(=O)Nc3ccc(C)cc3C)[nH]c2=O)cc1	-13%	-11%
CCCCC(=O)OCc1cc(=O)n2nc(C3CCCCC3)sc2n1	-7%	-10%
O=C(NCc1cccs1)c1cc2c(s1)CS(=O)(=O)C2	-24%	-13%
CCC(=O)Nc1cccc(NC(=O)c2ccc3c(c2)OCCO3)c1	-14%	-15%
COc1ccc(S(=O)(=O)N(C)c2ccc(C(=O)NC3CCCC3)cc2)cc1	-9%	-2%
CCN1C(=O)[C@H]2[C@H]3[C@H](O)[C@H](O)CC(=O)[C@@H]3CC[C@H]2C1=O	-8%	-10%
C=CCN1CCN(C(c2ccccc2OC)c2nnnn2C(C)(C)C)CC1 (configuration not stated)	0%	2%
CC(C)=CCc1c(O)c(CC=C(C)C)c2c(c1O)C(=O)CC(c1ccc(O)cc1)O2 (configuration not stated)	1%	3%
COc1ccc(C(=O)C[n+]2ccc3c(c2)nc(-c2ccc(OC)cc2OC)n3C)cc1	-18%	-1%
Cn1c(SCc2ccccc2)nc(C(F)(F)F)cc1=O	-11%	-3%
CCC(C)C(=O)Nc1ccc([N+](=O)[O-])cc1OC (configuration not stated)	-19%	-1%
CCOC(=O)c1c(-c2ccccc2)oc2ccc(OCC)cc12	-17%	u
Cc1cc(C(=O)N[C@H](c2ccccc2)[C@@]2(C)C[C@@H]2[C@@H](C)C(=O)Nc2ccc3ccccc3c2)n(C)n1	u	-11%
O=C(CSc1ccc(Cl)cc1)Nc1ccccc1N1CCN(C(=O)c2ccc(Cl)cc2)CC1	1%	-18%
NC(c1csc(Nc2ccc(C(F)(F)F)cn2)n1)C1CCCCC1 (configuration not stated)	u	u
COc1cc(C(=O)O/N=C2/C=CC(=O)C(C)=C2C)cc(OC)c1OC	0%	x
COC(=O)c1sc(-c2cccs2)cc1N	-13%	0%
Cc1oc(-c2ccccc2)nc1CNC(=O)NC1CCCCC1	-4%	-7%
COCCc1ccc(OC2(C)CCN(Cc3cccc(OC)c3OC)C2)cc1 (configuration not stated)	-5%	i
COc1ccc(Cl)cc1NC(=O)c1cc(-c2ccc(C)cc2O)n[nH]1	2%	i

In a second layout: four of the compounds above
The line under a structure holds: Vaccinia Venus	Vaccinia mCherry
- NC(c1csc(Nc2ccc(C(F)(F)F)cn2)n1)C1CCCCC1 (configuration not stated)
→ u	u
- COc1cc(C(=O)O/N=C2/C=CC(=O)C(C)=C2C)cc(OC)c1OC
→ 0%	x
- COC(=O)c1sc(-c2cccs2)cc1N
→ -13%	0%
- Cc1oc(-c2ccccc2)nc1CNC(=O)NC1CCCCC1
→ -4%	-7%

New compounds follow.
SMILES	Vaccinia Venus	Vaccinia mCherry
Cc1cccc(C(=O)O[C@@H]2[C@H](Cc3ccccc3)NS(=O)(=O)[C@H]3C[C@@H]4C=C[C@]23O4)c1	-13%	-7%
O=C(Nc1ccc(Cl)cc1)Nc1ccc(Br)cn1	-6%	i
CC(=O)Nc1ccc(NC(=O)C(C)OC(=O)CNC(=O)c2sc3ccccc3c2Cl)cc1 (configuration not stated)	-2%	-7%
Cc1c(Cc2ccccc2)c(=O)oc2cc(OCC(=O)N[C@@H](Cc3ccccc3)C(=O)O)ccc12	-2%	3%
CC(Oc1ccccc1)C(=O)Nc1ccccc1C(=O)OCc1cc(=O)n2nc(C(C)C)sc2n1 (configuration not stated)	-21%	-1%
Cc1ccccc1Cn1c([N+](=O)[O-])cnc1C	-9%	i
CCOC(=O)c1cccc(OCC(O)CNCCOc2ccccc2F)c1 (configuration not stated)	-3%	-28%
Cc1nn(Cc2ccc(Cl)cc2)c(C)c1NC(=O)/C=C/c1cnn(C)c1	-2%	-13%
COc1ccc(Cl)cc1NC(=O)CSc1nc(NS(=O)(=O)c2ccc(C)cc2)cc(=O)[nH]1	-3%	-12%
Cc1ccccc1OCC(=O)Nc1cnn(CCCC(=O)O)c1	10%	-16%
Cc1c(Cl)cccc1NC(=S)N1CCCCCC1	-16%	-21%
CCCCn1c(=NC(=O)c2ccc3c(c2)OCO3)c(C#N)cc2c(=O)n3cccc(C)c3nc21	7%	x
O=C(NCc1cccc(Br)c1)C1CC(c2ccccc2[N+](=O)[O-])=NO1 (configuration not stated)	-23%	-23%
COC(=O)N1c2ccccc2C=Cc2ccccc21	-30%	u
CCNC(=O)C(=O)NCCC1CCCCN1S(=O)(=O)c1cccs1 (configuration not stated)	-16%	-17%
COc1ccc(CC2(CO)CCN(Cc3ccc(OC(F)(F)F)cc3)CC2)cc1	-12%	-4%
NC(=O)CNc1n[nH]c(=S)[nH]c1=O	-26%	-8%
CC1(C)CC(=O)C2=C(C1)OC(N)=C(C#N)C2C#Cc1ccccc1 (configuration not stated)	2%	-1%
COc1ccc(NC2Oc3cc4c(cc3C(c3cc(OC)c(OC)c(OC)c3)C2C)OCO4)cc1 (configuration not stated)	u	u
Fc1ccc(-c2nnc3n2CCCCC3)cc1	-6%	-5%
O=C1CC2OCC=C3CN4CCC56c7cc([N+](=O)[O-])ccc7N1C5C2C3CC46 (configuration not stated)	-1%	i
O=C(C#Cc1ccccc1)c1ccc([N+](=O)[O-])cc1	-11%	i
O=C1NC(=O)C(CC(=O)N(c2ccccc2)C2(C(=O)NC3CCCC3)CCCCC2)N1 (configuration not stated)	-15%	x
Cc1cc(NC(=O)CON=C(N)CC(=O)Nc2ccccc2Cl)ccc1Br	-14%	-14%
COc1ccc(/C=C/C(=O)Oc2cc(O)cc(O)c2)cc1	-7%	-13%
Cc1cc(C(F)F)n2nc(C(=O)Nc3ccc(C(C)C)cc3)nc2n1	-4%	6%
COc1ccccc1C(=O)Nc1nnc(SCc2cc(=O)c3ccccc3[nH]2)s1	-17%	-23%
CC(C)(C)OC(=O)N(CC1CCNCC1)C(=O)c1[nH]c(C(F)(F)F)nc1-c1ccccc1	-3%	12%
COc1ccccc1CN1CCOc2ccc(CN3CCCCC3CO)cc2C1 (configuration not stated)	-26%	-24%
CCOc1ccc2nc(Cl)c(C3CC(c4ccccc4)=NN3C(=O)c3cccs3)cc2c1 (configuration not stated)	-29%	u
O=C(Cn1cnc2c(NCc3ccccc3)ncnc21)NCCc1cc2ccccc2[nH]1	-25%	-24%
CO/N=C/C=C1/N(C)c2ccccc2C1(C)C	-12%	-18%
c1ccc(CNc2c3c(nc4ncnn24)CCCC3)nc1	-16%	-15%
CNC(C)C(=O)NC(C(=O)NC(C)C(=O)Nc1cccc2ccccc12)C(C)C (configuration not stated)	-1%	4%
O=S(=O)(NCCSc1nc2ccccc2o1)c1ccccc1	-3%	-11%
Cc1cccc(C(=O)N2CCc3cc(CNC(=O)c4ccnn4C)ccc32)c1	-13%	i
CC(C)OP(=O)(OC(C)C)C(NCc1ccccc1)c1ccccc1 (configuration not stated)	-9%	i
O=C1[C@H]2[C@@H](c3ccc(F)cc3)N3C(=O)N(c4cccc(Cl)c4)C(=O)[C@@]3(Cc3ccc(Cl)cc3)[C@H]2C(=O)N1C1CCCCC1	-20%	-16%
Cc1cccc(C)c1OCC(=O)NNC(=O)CCNC(=O)c1ccco1	2%	i
COc1ccc(C2Nc3ccccc3C(=O)N2NS(=O)(=O)c2ccc(C)cc2)c(OC)c1 (configuration not stated)	25%	-12%

Quoted from the listing.
Under Vaccinia Venus, COC(=O)N1c2ccccc2C=Cc2ccccc21 is entered as -30%
Under Vaccinia Venus, N#Cc1ccccc1NC(=O)CSC1=Nc2ccccc2C2CC=NN12 (configuration not stated) is entered as 4%
Under Vaccinia mCherry, COc1ccc(C(=O)C[n+]2ccc3c(c2)nc(-c2ccc(OC)cc2OC)n3C)cc1 is entered as -1%
Under Vaccinia mCherry, COC(=O)c1sc(-c2cccs2)cc1N is entered as 0%
Under Vaccinia Venus, CC(C)OP(=O)(OC(C)C)C(NCc1ccccc1)c1ccccc1 (configuration not stated) is entered as -9%

Next part:
SMILES	Vaccinia Venus	Vaccinia mCherry
COC(=O)C1=C(C)Nc2nc(SCc3ccccc3)[nH]c(=O)c2C1c1cccs1 (configuration not stated)	-6%	16%
CCOC(=O)C1CCN(C(=O)c2ccc3c(c2)sc2nc(-c4ccc(C)cc4)cn23)CC1	-22%	i
Cc1ccccc1-n1nc(CSc2nc3ccccc3[nH]2)c(-c2ccccc2)c1N	-17%	-11%
Cn1c(CNc2ccc(Cl)cc2)nnc1SCCN1CCCCC1	-7%	i
Cc1ccc(N(C(C)C(=O)Nc2ccccc2C(=O)N2CCOCC2)S(C)(=O)=O)cc1C (configuration not stated)	-17%	x
O=C(Cn1nnc2ccccc21)Nc1ccccc1[N+](=O)[O-]	-13%	-14%
O=C(CN1CCCC1)N1c2ccccc2Sc2ccc(C(F)(F)F)cc21	-18%	x
CC1=C(C(=O)N(C(C)C)C(C)C)CC(CC(=O)NCCCCc2ccccc2)C(=O)N1Cc1ccc(C(C)(C)C)cc1 (configuration not stated)	u	u
O=C(NNC(=O)C1CC2CCC1C2)c1sc2ccccc2c1Cl (configuration not stated)	-18%	-3%
CC(=O)Nc1cccc(Oc2ccc3c(c2)C(=O)N(CCC(=O)O)C3=O)c1	0%	x
O=c1[nH]c(=S)[nH]c(O)c1N=Nc1ccc(SC(F)F)cc1	-4%	-17%
Cc1cccc(NC(=O)N2CCC(c3nc4ccccc4o3)CC2)c1	-12%	i
Cc1ccc(-c2cc3ncc4c(n3n2)-c2cc(F)ccc2OC4)cc1	-7%	-9%
CC(C)(C)NS(=O)(=O)CC12CCC(CC1=O)C2(C)C (configuration not stated)	10%	7%
COc1ccc2cc(CN(Cc3cccnc3)Cc3nnnn3Cc3ccccc3)c(=O)[nH]c2c1	-22%	i
CN(CC(=O)Nc1ccc(Cl)cc1F)S(=O)(=O)c1ccc2c(c1)n(C)c(=O)c(=O)n2C	-2%	-1%
OCc1cnc(SCc2ccccc2)n1Cc1ccccc1	-15%	-6%
COc1ccccc1/C=C(\C#N)C(=O)NCC1CCCO1 (configuration not stated)	0%	-4%
COc1ccc(NC(=O)N(C)C[C@H]2OCCCC[C@@H](C)Oc3ccc(NC(=O)c4ccccc4)cc3C(=O)N([C@H](C)CO)C[C@@H]2C)cc1	-30%	-28%
NC(=O)c1ccsc1NC(=O)COC(=O)c1cnccn1	-10%	i
Cc1ccc(SCCC(=O)N/N=C/c2ccccc2O)cc1	1%	-26%
COc1ccc(NC(=O)Cc2c(F)cccc2Cl)c(OC)c1	-8%	-20%
CCOc1ccc(N(CC(N)=O)S(=O)(=O)c2ccc(F)cc2)cc1	-20%	x
N#Cc1nc(/C=C/c2ccc(F)cc2)oc1N1CCCCCC1	-9%	-25%
CCCCOCC1CC(CC#CCN2CCCCC2)C(=O)O1 (configuration not stated)	-11%	-4%
Cc1cccc(NC(=O)C2CCCN(S(=O)(=O)c3ccc4c(c3)oc(=O)n4C)C2)c1C (configuration not stated)	-4%	-4%
COc1ccc(CNC(=O)c2cnc(N3CCCC3)nc2C)cc1	-7%	-7%
COc1ccc(CCNC(=O)c2nnn(CC(=O)Nc3ccccc3C)c2N)cc1OC	-11%	-2%
